# Screens as filed in PubChem BioAssay.
# CBX7 AlphaScr: CBX7 chromodomain binding inhibitors, primary screen, biochemical, AlphaScreen; normalised signal (fraction of DMSO) (no concentration beside the values); Chromobox protein homolog 7 (Homo sapiens), O95931; 66,000 compounds, 1.1% hits; AlphaScreen His6-CBX7 / biotin-H3K27me3 peptide binding; stronger effect = lower value; AID 1224903, 2016; in the data active = normalised signal below about 0.5;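 note: 100 nL library stock added to about 20 µL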
# Target sequence (O95931 whole entry, looked up): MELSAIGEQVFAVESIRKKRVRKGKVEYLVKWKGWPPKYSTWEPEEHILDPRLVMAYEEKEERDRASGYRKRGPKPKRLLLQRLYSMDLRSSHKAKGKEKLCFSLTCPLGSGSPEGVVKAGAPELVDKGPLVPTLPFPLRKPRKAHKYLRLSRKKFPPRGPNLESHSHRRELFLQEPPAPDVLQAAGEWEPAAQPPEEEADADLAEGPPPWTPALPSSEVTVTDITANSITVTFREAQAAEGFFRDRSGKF
# CBX7 AlphaScr z-score: recorded beside CBX7 AlphaScr, whose call it bears; z-score; measured here: z-score of CBX7 signal; some inactives read as strong as hits; reference of the scale not given here;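 same signal on another scale; lower means less binding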
# * marks the source's active call; other numbers are inactive results; & = joins results of further samples. These rows are one share of the data; rates above refer to the full screens.
SMILES,CBX7 AlphaScr,CBX7 AlphaScr z-score
CC(C)CCN(C)C1CCN(C(=O)Nc2c(F)cccc2F)CC1,0.991,-0.00945
O=C(CCc1nc2ccccc2n(Cc2ccccc2Cl)c1=O)NC1CCCCC1,0.853,-1.59
COC(=O)c1ccc(NC(=O)CN2C(=O)CC(c3ccc(OC)cc3)Sc3ccccc32)cc1 (stereo not drawn),0.925,-1.07
COc1ccc(-c2cn3c(C)c(C(=O)NCCc4ccc(OC)c(OC)c4)sc3n2)cc1,0.944,-1.08
COc1ccc(-c2nc(CSCC(=O)NCCCN3CCCC3=O)c(C)o2)cc1,1.04,0.942
Cc1ccc(CN2C(=O)CSc3ccc(C(=O)NCCC4=CCCCC4)cc32)cc1,1.04,0.88
CCCN(CCC)c1nc2c(cc1C#N)COC(C)(C)C2,1.44,7.97
CC(C)CC(=O)NC(c1ccccc1)c1ccc2cccnc2c1O (stereo not drawn),0.0438*,-3.36*
CCN(CCNC(=O)CCn1nc(-c2ccccc2)ccc1=O)c1ccccc1,0.901,-2.96
Cc1ccc2c(C)nc(Nc3nc4c(c(=O)[nH]3)CCC4)nc2c1,0.946,-1.5
CCN(CC)S(=O)(=O)c1ccc2oc(C(=O)NC3CCCC(C)C3C)c(C)c2c1 (stereo not drawn),0.907,-0.935
CC(N)C12CC3CC(CC(O)(C3)C1)C2 (stereo not drawn),0.972,-0.505
CCCCNC(=O)C1CCCN(c2nc3ccccc3o2)C1 (stereo not drawn),1.01,0.319
CC1CCc2c(C(=O)NCCC3=CCCCC3)csc2C1 (stereo not drawn),1.13,5.01
COc1ccccc1Nc1cc(C(=O)NCCN2CCCC2)c2ccccc2n1,1.13,0.129
Cc1nnc(Sc2cc(C(=O)NCCc3ccc(Cl)cc3)c3ccccc3n2)s1,1.05,0.922
O=C(CNC(=O)Cn1ccc2ccccc2c1=O)NCCCN1CCCC1,1.01,0.295
COc1ccc(OC)c(S(=O)(=O)NCCc2c(C)[nH]c3ccc(C)cc23)c1,0.427*,-0.571*
c1ccc(Nc2nc(-c3cccnc3)cs2)nc1,1.08,1.61
COc1ccccc1NC(=O)c1sc2ncn(Cc3ccccc3Cl)c(=O)c2c1C,1.03,0.171
CCN1CCN(C(=O)CCNC(=O)Cn2ccc3ccccc3c2=O)CC1,0.979,-0.53
COc1ccc(-c2noc(CCC(=O)NCCCN3CCN(c4ccc(F)cc4)CC3)n2)cc1,0.839,-2.46
Cc1ccc(-c2nc3nc(C)cc(C)n3c2Nc2ccccc2)cc1,1.1,1.15
COc1ccc(-c2cn(-c3ccc(F)cc3)c(=O)[nH]2)cc1OC,1.07,0.556
O=C(Nc1ccccc1C(F)(F)F)N1CCC(n2c(=O)[nH]c3ccccc32)CC1,1.01,0.392
CCOc1ccc(NC(=O)CC2SCCNC2=O)cc1 (stereo not drawn),1.06,1.53
CCCCN(C)CCNS(=O)(=O)c1cc(Br)cc2c1N(C(C)=O)CC2,1.03,0.571
COc1ccc(CN2C(=O)CCC2(C)C(=O)NC2CCCCCCC2)cc1 (stereo not drawn),1.02,0.476
CCC(C)C1Nc2ccc(C(=O)NCCCN3CCC(Cc4ccccc4)CC3)cc2NC1=O (stereo not drawn),0.867,-0.15
O=C(Nc1nnc(-c2cccnc2)s1)c1ccc(Cl)cc1,1,0.00713
O=C(CCN1CCCC1)Nc1ccc(OCc2ccccc2)cc1,1.07,2.62
CCOc1ccc(C(=O)Nc2ccc3oc(-c4ccncc4)nc3c2)cc1Cl,1.09,0.996
CCc1ccc(CN2C(=O)CCC2(C)C(=O)NC2CCCC(C)C2C)cc1 (stereo not drawn),0.838,-1.76
CNS(=O)(=O)c1cc(-c2nnc(Nc3ccc(S(N)(=O)=O)cc3)c3ccccc23)ccc1C,1.02,0.61
Cc1cccc(-c2nnc(SCC(=O)N3CCOCC3)o2)c1,0.964,-0.0827
Cc1ccccc1OCc1nc(C#N)c(N2CCCCCC2)o1,0.473*,-3.29*
Cc1ccc2c(c1)-c1c(cnn1CC(=O)N1CCN(c3ccccc3)CC1)CO2,1.06,1.69
COc1ccccc1C(=O)Nc1ccc(Cl)c(-c2nc3ccccc3o2)c1,1.14,1.39
O=C1Nc2ccccc2S(=O)(=O)N1c1ccc(Cl)c(Cl)c1,1.01,0.119
CCCc1ccc(Oc2c(-c3ccc(OCC)c(C)c3O)n[nH]c2C)cc1,0.772,-3.54
Fc1ccc(-c2csc(N3CCC(Cc4ccccc4)CC3)n2)cc1,1.14,3.78
COc1cc2c(cc1OC)C(c1c(C)nn(-c3ccccc3)c1Cl)CC(=O)N2 (stereo not drawn),0.986,-0.0188
OC(COc1ccccc1)Cn1c(Cc2ccccc2)nc2ccccc21 (stereo not drawn),0.914,-1.14
COc1cc(NC(=O)CSc2nc3nc(C)c(Cc4ccccc4Cl)c(C)n3n2)cc(OC)c1,0.811,-2.04
FC(F)(F)c1cc(-c2ccc(Cl)cc2)nc(NCCc2ccccc2)n1,1.36,0.428
CCN(CCNS(=O)(=O)c1ccc2c(c1)CC(C)N2C(C)=O)c1ccccc1 (stereo not drawn),0.933,-2
O=C(NCc1cccnc1)C1CCN(C(=O)c2cnn(-c3ccccc3)c2-n2cccc2)CC1,1.02,0.681
CCOc1ccc2c(c1)c(=O)c(S(=O)(=O)c1ccccc1)cn2Cc1cccc(Cl)c1,0.795,-3.93
O=C1CCc2cc(S(=O)(=O)NC(C(=O)NCc3ccccc3)c3ccccc3)ccc2N1 (stereo not drawn),0.984,-0.647
CC(=O)Oc1ccc(-c2cnc3ccccc3n2)cc1,1.02,0.318
O=C1CC(c2ccccc2)C(C(=O)Nc2ccccc2F)N1 (stereo not drawn),1.01,0.308
Cc1ccc(C)c(NC(=O)c2cnn3cccnc23)c1,1.04,0.657
Cc1cc(C)cc(OCC(=O)Nc2ccc(-c3nc4ccccc4o3)cc2)c1,0.86,-1.43
CCOC(=O)c1c[nH]c2c(C)ccc(Cl)c2c1=O,1.05,0.0545
Cc1cc(C)cc(C(=O)N2CC(=O)Nc3ccc(C)cc3C2c2ccccc2)c1 (stereo not drawn),1,0.0433
Cc1cccc(Nc2nc(-c3c(C)nc4ncccn34)cs2)c1,0.86&0.575,-1.61&-0.477
CCOCCCNC(=O)c1ccc2c(c1)N(Cc1ccc(F)cc1)C(=O)CS2,1.03,0.331
COc1ccccc1-c1c(C)nn2c(N3CCN(c4cc(Cl)ccc4C)CC3)cc(C)nc12,1.28,1.64
COc1ccc(Br)cc1C(=O)Nc1ccc2oc(-c3ccncc3)nc2c1,1.11,1.95
Fc1ccccc1N1CCN(CCCNc2ccc3nncn3n2)CC1,1.03,0.703

# Remaining list, next part
SMILES,CBX7 AlphaScr,CBX7 AlphaScr z-score
Cc1ccccc1C(=O)Nc1cccc(NC(=O)c2cc3ccccc3o2)c1,1.09,1.88
COc1ccc(-c2cc(C(=O)Nc3cnn(Cc4ccc(Cl)cc4Cl)c3)no2)cc1,0.932,-1.48
COc1ccc(N2CCN(C(=O)c3cc4c(s3)-c3ccccc3OC4)CC2)cc1,0.933,-3.22
CC1CCC(NC(=O)Cn2ncc3ccsc3c2=O)CC1 (stereo not drawn),1,0.0987
CCOC(=O)N1CCC(Nc2c(N(C)Cc3ccccc3)c(=O)c2=O)CC1,1.12,2.13
O=C(CCc1nc2ccccc2n(Cc2ccc(F)cc2)c1=O)NC1CC1,1.08,0.859
CC(C(=O)NCCCN1CCOCC1)n1ncc2ccccc21 (stereo not drawn),1.14,2.67
O=C(NCc1cccs1)c1cc2nc(-c3ccc(Cl)cc3)cc(C(F)(F)F)n2n1,0.797,-2.68
NS(=O)(=O)c1ccc(Nc2nc(-c3ccccc3)c3cc(Br)ccc3n2)cc1,0.995,-0.13
Cc1cccc2sc(NC(=O)C3CCN(S(=O)(=O)c4cccnc4)CC3)nc12,1.15,3.91
COc1ccc(-n2nc(C(=O)Nc3ccc(OC)cc3OC)c3ccccc3c2=O)cc1,0.828,-4.59
Cc1ccc(-n2nc3c(c2NC(=O)COc2ccc(Cl)cc2Cl)CS(=O)(=O)C3)cc1,1.14,0.898
O=C(Nc1ccc2oc(-c3ccccc3Cl)nc2c1)c1ccccc1F,0.65,-4.51
COCCCNC(=O)C(=O)NCc1ccncc1,1.04,1.17
Cc1[nH]c2c(Cl)cccc2c(=O)c1CN1CCN(C)CC1,1.04,0.698
CS(=O)(=O)N1CCCC(C(=O)NCCc2ccc(Cl)cc2)C1 (stereo not drawn),1.01,0.2
Brc1ccc2[nH]c3c(c2c1)CCCC3NCc1ccccc1 (stereo not drawn),1.03,0.293
CN(CC(=O)Nc1ccc2c(c1)OCCO2)S(=O)(=O)c1cccc2cccnc12,0.929,-1.61
O=c1[nH]c2ccc(Cl)cc2c(-c2ccccc2)c1CNS(=O)(=O)c1ccccc1,0.982,-0.722
CC1(C)CC2CC(C)(CN2C(=O)c2cc(-c3ccccc3O)on2)C1 (stereo not drawn),0.971,-0.0388
O=C(Cn1nc(Cc2ccncc2)c2ccccc2c1=O)N1CCN(c2ccc(F)cc2)CC1,0.909,-1.64
COCCn1c(COc2ccc(OC)cc2)nc2ccccc21,0.966,-0.858
COc1ccc(-c2cc3nc(C)c(CCC(=O)O)c(C)n3n2)c(OC)c1,1.08,1.01
COc1ccc(NC(=O)c2nc[nH]c2C(=O)Nc2ccccc2C)cc1,1.08,0.912
COc1ccc(CNC(=O)C(NS(=O)(=O)c2ccc3nc(C)sc3c2)C(C)C)cc1 (stereo not drawn),1.11,2.09
Fc1ccc(-c2nnc3ccc(NCCN4CCOCC4)nn23)cc1,0.986,-0.322
COCCCNC(=O)CN1C(=O)CSc2ccc(S(=O)(=O)N(C)C3CCCCC3)cc21,0.986,-0.41
CCCn1c(CCCNC(=O)c2ccc(F)cc2)nc2ccccc21,0.992,-0.196
Fc1ccc(-c2cc(C(F)(F)F)nc(NCc3cccs3)n2)cc1,1.34,3.77
COc1cc(CN2CCN(Cc3cccc(C)c3)CC2)cc(OC)c1OC,0.938,-1.05
COc1ccc(-n2nnc3c(=O)n(Cc4ccc(C(F)(F)F)cc4)cnc32)cc1,1.03,0.812
Cc1ccc(-c2nc(P(=O)(c3ccccc3)c3ccccc3)c(N3CCOCC3)o2)cc1,0.716,-2.41
O=C(Cn1cc(S(=O)(=O)c2ccc(F)cc2)c(=O)c2ccccc21)Nc1ccc(F)cc1,0.962,-0.548
Cc1ccc(-n2nc(C)c3c(C)c(CCC(=O)N4CCOCC4)c(C)nc32)cc1,1.14,1.08
Cc1cccc(CCNC(=O)C2CCC(=O)N2Cc2ccccc2Cl)c1 (stereo not drawn),0.997,-0.078
Cc1ccnc(N2C(=O)c3ccccc3C2Nc2cc(F)ccc2F)c1 (stereo not drawn),1.04,1.25
Cc1ccc(NC(=O)CCn2nc(-c3ccc(C)cc3)c3ccccc3c2=O)cc1,0.98,-0.569
COc1ccc(-c2nc(C(=O)NCc3ccc4c(c3)OCO4)c(C)o2)cc1OC,0.996,-0.0459
Cc1ccc(CNc2oc(-c3ccccc3F)nc2C#N)cc1,0.925,-0.85
CCC1Oc2ccc(C)cc2N(CC(=O)NCCN2CCN(c3cccc(Cl)c3)CC2)C1=O (stereo not drawn),0.835,-1.9
Cc1nnc(SCC(=O)Nc2ccc(S(N)(=O)=O)cc2)[nH]c1=O,0.863,-1.72
Cc1cc(N2CCC(C(=O)NCC3CCCO3)CC2)n2nc(C)c(-c3ccc(Cl)cc3)c2n1 (stereo not drawn),0.987,-0.624
O=C(NC(c1ccccc1)c1ccccc1)c1cnc2ccccn2c1=O,0.972,-0.402
Cc1ccccc1-c1nc(C(=O)NCc2ccccc2Cl)c(C)o1,0.962,-0.308
N#Cc1ccc(C(=O)Nc2ccccc2-c2nc3ccccc3s2)cc1,0.956,-1.21
CCOc1ccc(-n2ccnc2SCC(=O)Nc2cccc3ccccc23)cc1,0.667,-2.61
Cc1ccc(Nc2cc(C)nc(NCc3ccccc3)n2)c(C)c1,1.63,2.22
CC(Oc1ccc(Cl)cc1Cl)c1nc(-c2ccc(NC(=O)c3ccncc3)cc2)no1 (stereo not drawn),0.895,-1.97
CCOC(=O)N1CCC(Nc2nc3ccc(C)cc3nc2-n2nc(C)cc2C)CC1,1.17,6.1
O=C(O)c1ccc(N2C(=O)CC(N3CCN(Cc4ccc5c(c4)OCO5)CC3)C2=O)cc1 (stereo not drawn),0.994,-0.179
CCCCC(=O)Nc1c2c(nn1-c1ccc(F)cc1)CSC2,0.955,-2.26
OCCN1CCN(CC(O)COCc2ccc(Cl)cc2)CC1 (stereo not drawn),1.02,0.419

# Structures listed so far containing a furan ring, fused or not, in the order listed:
SMILES,CBX7 AlphaScr,CBX7 AlphaScr z-score
CCN(CC)S(=O)(=O)c1ccc2oc(C(=O)NC3CCCC(C)C3C)c(C)c2c1 (stereo not drawn),0.907,-0.935
Cc1ccccc1C(=O)Nc1cccc(NC(=O)c2cc3ccccc3o2)c1,1.09,1.88

# Compounds above that have an NH in an aromatic ring, in the order listed:
SMILES,CBX7 AlphaScr,CBX7 AlphaScr z-score
Cc1ccc2c(C)nc(Nc3nc4c(c(=O)[nH]3)CCC4)nc2c1,0.946,-1.5
COc1ccc(OC)c(S(=O)(=O)NCCc2c(C)[nH]c3ccc(C)cc23)c1,0.427*,-0.571*
COc1ccc(-c2cn(-c3ccc(F)cc3)c(=O)[nH]2)cc1OC,1.07,0.556
O=C(Nc1ccccc1C(F)(F)F)N1CCC(n2c(=O)[nH]c3ccccc32)CC1,1.01,0.392
CCCc1ccc(Oc2c(-c3ccc(OCC)c(C)c3O)n[nH]c2C)cc1,0.772,-3.54
CCOC(=O)c1c[nH]c2c(C)ccc(Cl)c2c1=O,1.05,0.0545
Cc1[nH]c2c(Cl)cccc2c(=O)c1CN1CCN(C)CC1,1.04,0.698
Brc1ccc2[nH]c3c(c2c1)CCCC3NCc1ccccc1 (stereo not drawn),1.03,0.293
O=c1[nH]c2ccc(Cl)cc2c(-c2ccccc2)c1CNS(=O)(=O)c1ccccc1,0.982,-0.722
COc1ccc(NC(=O)c2nc[nH]c2C(=O)Nc2ccccc2C)cc1,1.08,0.912
Cc1nnc(SCC(=O)Nc2ccc(S(N)(=O)=O)cc2)[nH]c1=O,0.863,-1.72
